# CSC inhib: blocks cancer stem cells; 300,000 compounds, 1.1% hits; AID 2717; inhibition, % at 7.5 µM; cancer stem cell-like cells viability, luminescence;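 active means mean at 75% or more and at least half the replicates too; inconclusive means mean and replicates disagree; tested in HMLE shEcad cells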;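 further: 0% = median of negative and 100% = median of positive control wells; the first replicate is given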
# MT1-MMP act inh: MT1-MMP (human) activation inhibition | P50281 | HT1080 RFP-PRO-GFP cells, GFP/RFP ratio fluorescence, overnight; percent of plate control window, DMSO zero | GFP/RFP ratio change, % at 20 µM | 360,000 compounds, 0.061% hits | AID 651647;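 active means GFP/RFP ratio change of at least 30% with cell ATP level not reduced by more than half and red fluorescence within 50% of control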; further: strong numbers were not always called active
#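 Compound: 20 µM single dose, 1% DMSO / System: HT1080 RFP-PRO-GFP cells / Controls: DMSO and RFP-L50D-GFP cell wells / Read-out basis: GFP/RFP fluorescence ratio / Schedule: overnight compound exposure at 37 °C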
# Rce1 inhib: blocks yeast Ras-converting enzyme. 290,000 compounds, 0.27% hits. calls only. yeast membranes, quenched prenylated peptide cleavage fluorescence;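 active means fall in fluorescence gain of 50% or more versus controls, with final raw signal at or below 3038400; inconclusive means same 50% fall but final raw signal above 3038400; inactive means fall in fluorescence gain under 50%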;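 further: plate controls were neutral control wells for no effect and wells lacking membranes for full effect; tested at 10 µM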
# Target sequence (Q03530 whole entry, looked up): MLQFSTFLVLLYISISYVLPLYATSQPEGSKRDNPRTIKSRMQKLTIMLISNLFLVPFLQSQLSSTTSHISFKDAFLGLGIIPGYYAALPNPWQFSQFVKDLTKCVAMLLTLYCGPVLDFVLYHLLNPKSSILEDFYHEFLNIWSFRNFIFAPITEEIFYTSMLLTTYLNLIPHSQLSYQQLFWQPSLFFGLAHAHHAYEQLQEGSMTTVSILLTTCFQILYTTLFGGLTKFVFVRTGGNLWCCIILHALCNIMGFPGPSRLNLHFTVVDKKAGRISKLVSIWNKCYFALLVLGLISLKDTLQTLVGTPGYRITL
# PABP polyA inh: blocks human PABP binding to poly(A) RNA; P11940; fluorescence polarization; inhibition, % at 35 µM; 290,000 compounds, 1% hits; AID 2014;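 active means 50% or more with normal probe brightness, or confirmed in later tests; inconclusive means above 50% with abnormal brightness, or retests that disagree; inactive means below 50% or failed in later tests; about a fifth of its hits are not listed in these tables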;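 further: calls also rest on retests at 20 µM and on dose response follow-up; controls were probe without protein and protein plus probe with vehicle; some compounds called inactive have numbers as strong as hits; many hits fall short of the cut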
# Yeast UUG start: alters start codon recognition fidelity in yeast | activity score, % at 18.7 µM | 350,000 compounds, 0.13% hits | S. cerevisiae UUG-firefly luciferase reporter, luminescence/redox ratio;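 active means replicate mean at a twofold rise or more, about +100% in these data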;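 further: firefly luciferase made from a UUG start codon reports start codon fidelity; reporter light over untreated wells divided by growth signal over untreated wells; some hits fall short of that in this replicate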
# eIF4H inh: inhibitors of RNA binding by human eIF4H. Q15056. eIF4H fluorescence polarization binding assay. inhibition, % at 35 µM. 290,000 compounds, 0.94% hits. AID 2012;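 active means 50% or more with normal probe brightness, or confirmed in later tests; inconclusive means above 50% with abnormal brightness, or retests that disagree; inactive means below 50% or failed in later tests; about a fifth of its hits are not listed in these tables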;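 further: calls also rest on retests at 20 µM and on dose response follow-up; 0% = protein and probe with vehicle and 100% = probe without protein; strong numbers were not always called active; many hits fall short of the cut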
# Env fusion inh: HIV envelope-mediated fusion inhibition. HeLa-JRFL Env/CEM21 cell fusion, luciferase. inhibition, % at 12.3 µM. 360,000 compounds, 1.1% hits. AID 651610;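 active means mean replicate inhibition score of at least 50 and every replicate individually at or above 50; inconclusive means only one of the two criteria met; inactive means mean below 50 and not all replicates reaching 50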;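 further: 0% = plate neutral controls and 100% = maraviroc near 300 nM; one replicate is shown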
# MT1-MMP act inh RFP: also measured in MT1-MMP act inh; calls as there; RFP signal change, %; measured here: RFP expression control read;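 0 = vehicle wells; hits needed this value within 50% of zero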
# The depositor's hits bear a star; i = inactive; ? = inconclusive; nt = not tested or not shown; & = joins results of further samples; [ ] = remark or other dose. The list is partial; count on the stated rates, not on these rows.
SMILES,CSC inhib,MT1-MMP act inh,MT1-MMP act inh RFP,Rce1 inhib,PABP polyA inh,Yeast UUG start,eIF4H inh,Env fusion inh
CCN(C(=O)N1CCOCC1)c1ccccc1,-14,-4,-1,i,-6,-19,-6,-30
Cc1cc(N2CCOCC2)ccc1/C=C1\NC(=O)N(Cc2ccccc2F)C1=O,11,-4,-4,i,-5,nt,5,-4
O=C(NCCCNC(=O)c1ccco1)c1ccc(Cl)c(Cl)c1,-5,7,5,i,8,9,-11,7
Cc1ccc(C)c(-c2ccc(=O)n(Cc3c(F)cccc3Cl)n2)c1,9,-2,-8,i,2,-6,1,26
Clc1ccc(C=NN2CCCCCC2)cc1Cl,nt,-3,-4,nt,nt,-25,nt,-82
N#C/C(=C/c1ccc(N2CCCCCC2)o1)c1ccc(F)cc1,-10,-11,2,i,nt,-22,nt,nt
Clc1ccccc1-c1ccc2ncnc(NCc3cccs3)c2c1,nt,-2,-5,nt,nt,14,nt,27
COc1cc(/C=N/NC(=O)c2cccc(NC(=O)c3ccccc3)c2)ccc1O,-12,6,3,i,14,-17,-13,12
O=C(COC(=O)c1cc(Br)ccc1O)NCCC1=CCCCC1,nt,0,1,nt,nt,-12,nt,0
Cc1nn(-c2cccc3cccnc23)c(=O)c2ccccc12,2,-6,-4,i,10,-4,-3,-32
O=C(N/N=C/c1cccs1)c1n[nH]c2c1CCCC2,50,-4,-9,i,9,-25,0,17
Cc1cccc(-n2c(Cc3ccccc3)nnc2SCC(=O)N2CCOCC2)c1,-7,-2,2,i,4,-7,2,2
Cc1cc(C(=O)NCc2ccccc2Cl)n(-c2ccccc2)n1,-5,-2,4,i,-2,-10,-2,11
CC(C)CN(C(=O)C1CCCO1)C1CCS(=O)(=O)C1 (stereo not given),-8,0,4,i,nt,-7,nt,nt
Cc1ccc(Nc2nnc(-c3ccncc3)s2)c(Br)c1,nt,6,5,i,-6,-11,-12,nt
COc1cccc(OCCSc2nc(C)c(Cc3ccccc3)c(=O)[nH]2)c1,2,1,0,i,-3,nt,8,12
CCOC(=O)c1cc2c(C(F)(F)F)cc(-c3cccnc3)nc2o1,-2,-1,5,i,4,-24,-2,nt
O=C(Cc1ccccc1)Nc1ccc(NC(=O)c2ccc(Br)cc2)cc1,-10,2,-2,i,-8,-16,8,19
CCOC(=O)c1[nH]c(C)c(C(=O)N2CCN(C(=O)c3ccco3)CC2)c1C,-8,-1,3,i,0,-16,20,nt
O=C(CN1c2ccccc2S(=O)(=O)c2ccccc21)Nc1ccccc1F,-6,3,0,i,-10,-15,-8,5
Cn1c(SCC(=O)NC(=O)Nc2ccccc2)nnc1-c1ccncc1,-1,1,2,i,7,11,-13,2
O=C(Nc1ccc(S(=O)(=O)Nc2nccs2)cc1)C1CC(=O)N(c2ccc(Cl)cc2)C1 (stereo not given),1,-3,0,i,-4,-5,6,-43
COc1ccc2o/c(=N\O)c(C(=O)Nc3ccccc3OC)cc2c1,-6,3,-5,i,7,-7,0,nt
COCCN1C=C(C(=O)OC)C(c2ccccc2Cl)C(C(=O)OC)=C1,-3,-2,-6,i,2,-21,8,-1
O=C(O)C(c1ccccc1)N1C(=O)/C(=C\c2ccc(-c3ccc(Br)cc3)o2)SC1=S (stereo not given),nt,-54,2,i,?,5,?,-8
O=C(COC(=O)c1cc([N+](=O)[O-])ccc1N1CCOCC1)c1ccccc1Cl,-19,3,0,i,-6,1,-5,20
Cc1cc(O)c(-c2ccno2)cc1Cl,7,0,4,i,2,nt,-6,6
CCC[C@H](CN[C@@H](CNC)[C@H](C)CC)NCCc1cc(C(F)(F)F)cc(C(F)(F)F)c1,59,-3,-3,i,-8,-10,-12,-19
Cc1ccc(NC(=O)C2CC(=O)N/C(=N/N=C/c3ccco3)S2)cc1 (stereo not given),-15,3,0,i,-1,nt,-13,3
Cn1c(SCC(=O)C(C)(C)C)nnc1-c1ccccn1,-9,2,7,i,5,-22,2,-104
COc1ccc(NC(=O)CCCNC(=O)Cn2cnc3sc(C)c(C)c3c2=O)cc1Cl,-22,0,-2,i,7,-18,-3,-2
COc1ccc(C2=CC(c3cccc(OC)c3)n3nnnc3N2)cc1 (stereo not given),21,-55,7,i,-4,-14,-3,-12
CN(C)/C=C/C1=C([N+](=O)[O-])C(c2cccc([N+](=O)[O-])c2)NC(=O)N1 (stereo not given),-5,-1,2,i,23,10,21,4
COc1ccccc1C(=O)Nc1ccnn1C1CCN(Cc2ccccc2OCCO)CC1,-7,4,2,i,4,-5,8,-1
COc1cc(CN2CCC(CO)(CCOc3ccccc3)CC2)cc(OC)c1,-2,2,5,i,-9,nt,-4,16
N#CC1(NC(=O)CSc2nnc(-c3ccccc3F)n2N)CCCCC1,-8,-5,0,i,nt,-10,nt,2
COc1cc(OC)cc(-c2c(-c3ccc(F)cc3)c3cc(-c4cnc(OC)nc4)ccc3n2C)c1,4,-10,-13,nt,nt,-14,nt,-4
Brc1cccc(CNCc2cccs2)c1,-9,3,5,i,5,5,-1,-23
Nc1nc(F)cc(NCc2ccccc2)n1,-8,1,0,i,0,nt,4,-23
CC(C)c1nnc(NC(=O)C2CCN(C(=O)c3ccco3)CC2)s1,-12,6,1,i,-5,-1,3,-2
CCOC(=O)CN(C(=O)CSc1nnc(-c2ccc(OC)c(OC)c2)o1)c1ccccc1,-7,0,-5,i,-2,-15,-8,?
Cc1cccc(NC(=O)CSc2nnc(Cn3nnc(-c4ccccc4)n3)n2-c2ccccc2)c1,-4,-6,-3,i,6,-8,2,7
CCCOC(=O)Oc1ccc2c(=O)c(Oc3cc(C)cc(C)c3)coc2c1,13,-2,-4,i,5,nt,-4,-10
O=C(O)c1ccccc1SCC(=O)N1CCCCC1,-8,-3,2,i,13,-17,-4,nt
COc1ccc(-n2c(Cc3cccn3C)nnc2SCC(=O)N2CCCc3ccccc32)cc1,7,-5,-1,i,0,5,-4,22
Cc1ccc(Sc2ccc(NC(=O)CCl)cc2)cc1C,34,-9,-5,i,-10,nt,2,-12
O=C(c1cccnc1)N1CCN(C(=O)c2ccccc2F)CC1,1,2,3,nt,-1,1,-10,nt
Cc1c(Cl)cccc1N=c1c([N+](=O)[O-])nn(-c2ccccc2)n1O,0,6,-4,i,-8,-5,5,nt
CCOC(=O)c1cc(=O)n(-c2ccc(Cl)cc2C)[nH]1,3,0,2,i,-6,1,-6,10
CC(=O)Oc1ccc(-n2c(=O)c3ccccc3c3ccccc3c2=O)cc1,-6,-4,-4,i,-9,nt,-3,5
# Following part.
SMILES,CSC inhib,MT1-MMP act inh,MT1-MMP act inh RFP,Rce1 inhib,PABP polyA inh,Yeast UUG start,eIF4H inh,Env fusion inh
CC(/C=N/NC(=O)c1cccc(F)c1)=C\c1ccccc1,4,0,-2,i,-4,-31,-3,-315
CC1CCCCN1C(=O)CN1C(=O)NC2(CCCCC2C)C1=O (stereo not given),2,-1,3,nt,nt,-10,nt,nt
N#CCCN(Cc1ccccc1)C(C(=O)NC1CCCCC1)c1cc2ccccc2o1 (stereo not given),nt,-11,-29,nt,nt,-6,nt,-18
C=CCOC(=O)C1=C[C@H](c2ccc(Br)cc2)C[C@H](OCc2ccc(CO)cc2)O1,-1,1,3,i,nt,13&-8,nt,5[16.7 µM]
O=C(Cc1ccc([N+](=O)[O-])cc1)NCCS(=O)(=O)N1CCN(c2ccccc2)CC1,nt,5,-6,nt,nt,-25,nt,-1
NC(=O)C1CCN(C(=O)c2cnn(-c3ccccc3)c2NC(=O)c2ccco2)CC1,-5,-5,4,i,-9,-4,-7,nt

# Filtered by structure: those above containing a Cl atom
SMILES,CSC inhib,MT1-MMP act inh,MT1-MMP act inh RFP,Rce1 inhib,PABP polyA inh,Yeast UUG start,eIF4H inh,Env fusion inh
O=C(NCCCNC(=O)c1ccco1)c1ccc(Cl)c(Cl)c1,-5,7,5,i,8,9,-11,7
Cc1ccc(C)c(-c2ccc(=O)n(Cc3c(F)cccc3Cl)n2)c1,9,-2,-8,i,2,-6,1,26
Clc1ccc(C=NN2CCCCCC2)cc1Cl,nt,-3,-4,nt,nt,-25,nt,-82
Clc1ccccc1-c1ccc2ncnc(NCc3cccs3)c2c1,nt,-2,-5,nt,nt,14,nt,27
Cc1cc(C(=O)NCc2ccccc2Cl)n(-c2ccccc2)n1,-5,-2,4,i,-2,-10,-2,11
O=C(Nc1ccc(S(=O)(=O)Nc2nccs2)cc1)C1CC(=O)N(c2ccc(Cl)cc2)C1 (stereo not given),1,-3,0,i,-4,-5,6,-43
COCCN1C=C(C(=O)OC)C(c2ccccc2Cl)C(C(=O)OC)=C1,-3,-2,-6,i,2,-21,8,-1
O=C(COC(=O)c1cc([N+](=O)[O-])ccc1N1CCOCC1)c1ccccc1Cl,-19,3,0,i,-6,1,-5,20
Cc1cc(O)c(-c2ccno2)cc1Cl,7,0,4,i,2,nt,-6,6
COc1ccc(NC(=O)CCCNC(=O)Cn2cnc3sc(C)c(C)c3c2=O)cc1Cl,-22,0,-2,i,7,-18,-3,-2
Cc1ccc(Sc2ccc(NC(=O)CCl)cc2)cc1C,34,-9,-5,i,-10,nt,2,-12
Cc1c(Cl)cccc1N=c1c([N+](=O)[O-])nn(-c2ccccc2)n1O,0,6,-4,i,-8,-5,5,nt
CCOC(=O)c1cc(=O)n(-c2ccc(Cl)cc2C)[nH]1,3,0,2,i,-6,1,-6,10
